Source: PubChem
PKD1 kinase inh: blocks activity of human protein kinase D1; Q15139; PKD1 kinase fluorescence polarization assay; inhibition, %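 (about 10 µM by stock and volumes)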; actives 0.056% (n = 200,000); AID 797;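 active = inhibition of 50% or more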;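 also: controls were vehicle for no effect and a reference inhibitor for full effect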
GALR2 agonist: activates the human galanin receptor 2 | actives 0.48% (n = 140,000) | O43603 | GALR2-expressing cells, agonist activation read-out | activation, %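 (tested at 5 µM)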;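 active = above mean plus 3 SD of all compounds, about 5% in these data, not always enough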;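 also: 0% = vehicle buffer wells and 100% = reference agonist at full effect; tested in CHO reporter cells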
Target sequence (O43603 whole entry, looked up): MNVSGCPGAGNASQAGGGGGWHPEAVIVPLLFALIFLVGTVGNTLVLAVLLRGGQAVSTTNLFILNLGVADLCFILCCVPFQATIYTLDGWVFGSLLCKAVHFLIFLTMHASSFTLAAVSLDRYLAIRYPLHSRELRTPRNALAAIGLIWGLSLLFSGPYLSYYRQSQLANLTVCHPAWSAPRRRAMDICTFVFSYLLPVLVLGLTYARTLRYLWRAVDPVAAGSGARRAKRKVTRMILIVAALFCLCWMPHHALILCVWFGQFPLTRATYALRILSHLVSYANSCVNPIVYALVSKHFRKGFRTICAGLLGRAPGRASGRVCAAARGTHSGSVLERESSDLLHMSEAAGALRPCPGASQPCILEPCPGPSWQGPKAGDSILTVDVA
Insulin prom inh: TRM-6 insulin promoter activity inhibition; inhibition, % at 2 µM; actives 0.9% (n = 130,000); TRM-6 cells (human fetal islet line), insulin promoter-eGFP reporter, imaging; reporter expression induced with tamoxifen;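 active = inhibition above the mean plus 3 SD, with well images judged a real hit on visual review, cut at about 60% in these data, passing the limit was not always enough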
RGS16-Gao HTS: modulates binding between human RGS16 and Galphao; AID 1441; O15492+P09471; bead-based flow cytometry RGS16-Galphao binding, fluorescence; actives lie on both sides; actives 0.38% (n = 220,000); binding response (% of control), % at 10 µM;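 active = below 25% or above 175%, edge rows of some plates excepted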;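 also: Galphao activated by GDP with aluminum fluoride before binding; 100% = wells without compound and 0% = beads without RGS; some results beyond the cut were filed as inactive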
Target sequence (O15492 whole entry, looked up): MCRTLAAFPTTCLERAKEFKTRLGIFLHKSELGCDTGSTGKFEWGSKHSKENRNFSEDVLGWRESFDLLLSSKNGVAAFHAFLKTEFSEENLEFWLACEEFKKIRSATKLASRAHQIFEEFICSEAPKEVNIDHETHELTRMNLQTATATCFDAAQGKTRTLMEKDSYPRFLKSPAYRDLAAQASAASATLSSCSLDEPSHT
Target sequence (P09471 whole entry, looked up): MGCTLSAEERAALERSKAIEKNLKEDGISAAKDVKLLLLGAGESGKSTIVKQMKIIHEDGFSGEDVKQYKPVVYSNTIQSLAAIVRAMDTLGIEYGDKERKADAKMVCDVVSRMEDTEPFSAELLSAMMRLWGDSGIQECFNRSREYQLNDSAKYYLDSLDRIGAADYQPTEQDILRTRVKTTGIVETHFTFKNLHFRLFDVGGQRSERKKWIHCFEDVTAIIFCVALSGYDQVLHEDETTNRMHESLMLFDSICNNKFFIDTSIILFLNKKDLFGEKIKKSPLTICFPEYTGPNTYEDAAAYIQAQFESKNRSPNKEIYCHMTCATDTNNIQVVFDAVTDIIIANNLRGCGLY
HSV replic up: increases HSV replication in cells | HSV replication augmentation in cells, fold increase | maximum fold increase | actives 0.005% (n = 220,000);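 active = peak rise of 1.5-fold or more in the series; tested in PC3 cells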;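 also: first round at 10 µM; read as green reporter fluorescence; hits show the peak of a series up to 25 µM; 1 = signal of infected wells without compound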
Insulin prom inh cell count: second read-out of Insulin prom inh, no call of its own (marks repeat the call); normalized cell count, %; measured here: cell count, toxicity; reference of the scale not given here;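 cells exposed to compound for 48 h; stained nuclei by imaging scaled within each plate; lower means fewer cells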
HSV replic up primary fold: second read-out of HSV replic up, no call of its own (marks repeat the call); fold increase; compound at 10 µM; measured here: primary screen fold increase 10 uM; tested in PC3 cells;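 GFP signal in the first replicate; 1 = infected wells without compound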
Starred values were filed as active, the others as inactive; i = inactive; nt = not tested or not shown; & = joins results of further samples. Rows were taken by chance; any-hit rate near 1.3%.

SMILES | PKD1 kinase inh | GALR2 agonist | Insulin prom inh | Insulin prom inh cell count | RGS16-Gao HTS | HSV replic up | HSV replic up primary fold
CCOC(=O)Nc1nnc(-c2cccc(OC)c2)s1 | 3 | 0.6 | 26 | 203 | 103 | i | 1.1
Cc1ccccc1-c1n[nH]c(=S)n1/N=C/c1c(C)nn(-c2ccccc2)c1C | 1 | 0.3 | -52 | 88 | 100 | i | 0.91
S=c1[nH]nc(-c2ccc3ncccc3c2)n1-c1ccc2c(c1)OCCO2 | 4 | nt | -89 | 87 | 88 | i | 0.97
CC(Sc1nnc(C(C)N(C)C)n1-c1ccc(Cl)cc1)C(=O)Nc1ccc2c(c1)OCO2 (configuration not stated) | -7 | -0.5 | -35 | 48 | 98 | i | 0.93
NS(=O)(=O)c1ccc(CCNC(=O)CSc2cccs2)cc1 | 2 | nt | nt | nt | 91 | i | 1
COc1ccc(C(=O)NN(C)c2nc(-c3ccccc3)cc(C)c2S(C)(=O)=O)cc1 | 0 | -1.2 | 4 | 133 | 101 | i | 0.99
NC(=O)c1c(NC(=O)C2COc3ccccc3O2)sc2c1CCN(Cc1ccccc1)C2 (configuration not stated) | 2 | nt | -36 | 223 | 117 | nt | nt
O=C(/C=C/c1ccc([N+](=O)[O-])cc1)NCc1ccc2c(c1)OCO2 | -6 | nt | nt | nt | 110 | i | 1.1
O=C(Cc1c[nH]c2ccccc12)NCc1ccc(Cl)cc1 | 4 | -0.6 | -3 | 142 | 112 | i | 0.95
C=CCNc1ncnc2ccc(Br)cc12 | -8 | -0.8 | -9 | 157 | 99 | i | 0.93
CCc1cccc(CC)c1-n1c(SCC(=O)c2c(N)n(C)c(=O)n(C)c2=O)nnc1-c1cccnc1 | 4 | -0.8 | nt | nt | 102 | i | 0.8
COC(=O)c1c(N)sc(C(C)=O)c1C | -2 | -1.4 | nt | nt | 102 | i | 1.1
CCc1ccc2c(c1)c1nnc(NN)nc1n2CC | -3 | -0.4 | 0 | 104 | 107 | i | 0.96
Cc1ccccc1Oc1ccc(S(=O)(=O)NCCC(=O)O)cc1 | -16 | -0.2 | nt | nt | 101 | i | 0.74
O=C(NCCN1CCCC1=O)Nc1ccccc1 | -2 | -3.1 | 3 | 141 | 101 | i | 0.88
COCCNC(=S)N/N=C(\C)c1ccc(Cl)s1 | nt | nt | nt | nt | 99 | i | 1.2
Cc1sc2nc(CSc3nc4ccccc4s3)[nH]c(=O)c2c1C | 12 | nt | nt | nt | 99 | i | 0.98
CCc1ccc(NC(=O)COc2ccc(Br)cn2)cc1 | -5 | nt | nt | nt | 100 | i | 0.95
CC1CCCN(C(=O)C(C)Sc2nc(-c3ccccc3)cc(C(F)(F)F)n2)C1 (configuration not stated) | -7 | 0.1 | nt | nt | 97 | i | 0.98
CCC(O)CNC(=O)NC(=C(Cl)Cl)c1ccc(C)c(F)c1 (configuration not stated) | -1 | -3.2 | -13 | 152 | 102 | i | 0.69
CCCCNC(=O)C1(NC(=O)Nc2ccccc2)CCCCC1 | 2 | nt | nt | nt | 85 | i | 1.2
Cn1cccc1C(=S)N=P(C1CCCCC1)(N1CCOCC1)N1CCOCC1 | -5 | 0.4 | nt | nt | 98 | i | 1
Oc1ccc(Oc2ccc3c(C(F)(F)F)cc(C(F)(F)F)nc3n2)cc1 | 13 | -2.5 | 15 | 113 | 104 | i | 0.87
COc1cc(C(=O)Nc2ccc(NC(=O)c3ccco3)nc2)cc(OC)c1OC | 7 | -0.8 | nt | nt | 94 | i | 1
CC1=NN(c2ccc(C)cc2C)C(=O)C1C(c1ccccc1)C1C(=O)N(c2ccc(C)cc2C)N=C1C (configuration not stated) | -2 | -1.2 | -62 | 116 | 97 | i | 0.91
CN(C)C(=O)Cn1c(SCC(=O)NCc2ccc3c(c2)OCO3)nc2ccccc21 | -8 | -1.6 | 23 | 26 | 106 | i | 0.89
O=C(CN1CCN(c2ccccn2)CC1)NC1CCCC1 | -1 | -0.2 | nt | nt | 100 | i | 0.99
COC(=O)c1ccc(C(=O)OC)c(NC(=S)N2CCN(c3ccccc3)CC2)c1 | -4 | -3.1 | nt | nt | 75 | i | 0.9
CCCCN1C(=O)C(CC(=O)NCC)SC1=Nc1ccccc1 (configuration not stated) | 2 | -1.4 | -450 | 58 | 101 | i | 1
COc1ccc(-c2noc(-c3cccnc3)n2)cc1OC | -4 | nt | 32 | 72 | 97 | i | 1.1
CCOc1ccc(S(=O)(=O)N2CCN(C(=O)c3sccc3C)CC2)cc1 | 7 | -3.4 | -26 | 79 | 108 | i | 0.84
COc1ccccc1N1CCN(C(c2ccc(F)cc2)c2nnnn2C(C)C)CC1 (configuration not stated) | -7 | -1.7 | nt | nt | 97 | i | 0.9
Nc1n[nH]c(C(F)(F)F)c1-c1ccccc1 | 1 | nt | 20 | 108 | 96 | i | 1.1
CCNC(=O)NCc1c(C)c(C)n(Cc2ccccc2)c1-n1cccc1 | 0 | nt | 20 | 51 | 103 | i | 1
C[C@@H]1CC=C[C@H]2[C@H]1C(=O)N(Cc1ccccc1)[C@H]2c1ccc(C(F)(F)F)cc1 | nt | nt | nt | nt | 99 | i | 0.8
O=C(Nc1nsc(-c2ccccc2)n1)c1cccs1 | -2 | -3.0 | 0 | 128 | 38 | i | 0.76
O=C(CSc1nnc2scc(-c3ccccc3)n12)Nc1nsc(-c2ccccc2)n1 | -4 | -0.7 | -111 | 153 | 116 | i | 0.89
Cc1cc2sc3ccccc3c(=O)c2c(C)c1O | -1 | nt | nt | nt | 102 | i | 1.1
CCN(CC(O)CON=C1c2ccccc2-c2ccccc21)S(=O)(=O)c1ccc(Cl)cc1 (configuration not stated) | 1 | -0.4 | nt | nt | 141 | i | 0.93
Cc1ncc(CO)c(/C=N/NC(=S)Nc2cccc(Cl)c2)c1O | -15 | nt | nt | nt | 100 | i | 1
O=C1CCC([N+](=O)[O-])C(c2cccc([N+](=O)[O-])c2)N1 (configuration not stated) | 2 | nt | nt | nt | 97 | i | 0.99
CCc1cc2c(=O)n(CC(C)C)cnc2s1 | -5 | 0.3 | 17 | 147 | 106 | i | 0.96
CCN1C(=O)CC(n2c(C)nc3ccccc32)C1=O (configuration not stated) | -1 | -2.2 | 30 | 137 | 177 | i | 0.99
COc1ccc(C(C[N+](=O)[O-])c2c(-c3ccccc3)cc3ccccn23)cc1 (configuration not stated) | -7 | -1.1 | 57 | 29 | 103 | nt | nt
Cc1ccc(NC(=O)CSCC(=O)O)cc1 | -9 | nt | 0 | 80 | 106 | i | 0.99
Cc1ccccc1-c1nc(CS(=O)(=O)CC(=O)NCc2ccc3c(c2)OCO3)c(C)o1 | 2 | -1.5 | nt | nt | 100 | i | 0.92
CCc1ccc(OCC(=O)N/N=C/c2cc([N+](=O)[O-])ccc2N2CCCCCC2)cc1 | 2 | 0.4 | -30 | 51 | 32 | i | 0.94
Cc1ccc2[nH]c3c(c2c1)CCNC3=O | 8 | nt | nt | nt | 103 | i | 0.88

12 successive entries from above, quoted:
SMILES | PKD1 kinase inh | GALR2 agonist | Insulin prom inh | Insulin prom inh cell count | RGS16-Gao HTS | HSV replic up | HSV replic up primary fold
CCOC(=O)Nc1nnc(-c2cccc(OC)c2)s1 | 3 | 0.6 | 26 | 203 | 103 | i | 1.1
Cc1ccccc1-c1n[nH]c(=S)n1/N=C/c1c(C)nn(-c2ccccc2)c1C | 1 | 0.3 | -52 | 88 | 100 | i | 0.91
S=c1[nH]nc(-c2ccc3ncccc3c2)n1-c1ccc2c(c1)OCCO2 | 4 | nt | -89 | 87 | 88 | i | 0.97
CC(Sc1nnc(C(C)N(C)C)n1-c1ccc(Cl)cc1)C(=O)Nc1ccc2c(c1)OCO2 (configuration not stated) | -7 | -0.5 | -35 | 48 | 98 | i | 0.93
NS(=O)(=O)c1ccc(CCNC(=O)CSc2cccs2)cc1 | 2 | nt | nt | nt | 91 | i | 1
COc1ccc(C(=O)NN(C)c2nc(-c3ccccc3)cc(C)c2S(C)(=O)=O)cc1 | 0 | -1.2 | 4 | 133 | 101 | i | 0.99
NC(=O)c1c(NC(=O)C2COc3ccccc3O2)sc2c1CCN(Cc1ccccc1)C2 (configuration not stated) | 2 | nt | -36 | 223 | 117 | nt | nt
O=C(/C=C/c1ccc([N+](=O)[O-])cc1)NCc1ccc2c(c1)OCO2 | -6 | nt | nt | nt | 110 | i | 1.1
O=C(Cc1c[nH]c2ccccc12)NCc1ccc(Cl)cc1 | 4 | -0.6 | -3 | 142 | 112 | i | 0.95
C=CCNc1ncnc2ccc(Br)cc12 | -8 | -0.8 | -9 | 157 | 99 | i | 0.93
CCc1cccc(CC)c1-n1c(SCC(=O)c2c(N)n(C)c(=O)n(C)c2=O)nnc1-c1cccnc1 | 4 | -0.8 | nt | nt | 102 | i | 0.8
COC(=O)c1c(N)sc(C(C)=O)c1C | -2 | -1.4 | nt | nt | 102 | i | 1.1

(more compounds)
SMILES | PKD1 kinase inh | GALR2 agonist | Insulin prom inh | Insulin prom inh cell count | RGS16-Gao HTS | HSV replic up | HSV replic up primary fold
O=C1CC(N(C(=O)c2ccco2)c2cccc(Cl)c2)C(=O)N1c1cccc(Cl)c1 (configuration not stated) | -3 | -0.9 | nt | nt | 102 | i | 0.99
CCCNNC(=O)C(O)(c1cccc(C)c1)c1cccc(C)c1 | -11 | 0.2 | -26 | 92 | 105 | i | 0.86
CC(=O)Oc1ccc(NC(=O)Cc2ccccc2)cc1 | -4 | -0.8 | 50 | 125 | 103 | i | 0.9
CC1(C)CC(NC(=S)NC2CC2)CC(C)(C)N1 | -3 | nt | nt | nt | 104 | i | 0.95
COc1ccc2c(CC(=O)Nc3ccc(OC)nc3)coc2c1 | 3 | nt | -45 | 124 | 108 | i | 1
CSCCC(NS(=O)(=O)c1ccc(Cl)cc1)C(=O)O (configuration not stated) | 2 | nt | nt | nt | 103 | i | 1.2
CCc1ccccc1OCc1nc2ccc(S(=O)(=O)N3CCOCC3)cc2[nH]1 | 20 | -2.2 | -32 | 128 | 97 | i | 0.76
COc1ccc(CCC(=O)N(c2nnc(-c3cccnc3)s2)C(C)C)cc1 | -1 | nt | nt | nt | 97 | i | 0.99
CCOC(=O)C1(CCCc2ccccc2)CCN(C(=O)CCn2cncn2)CC1 | -5 | nt | nt | nt | 96 | i | 1.1
Cc1ccc(NC(=S)Nc2c(C)n(C)n(-c3ccccc3)c2=O)cc1 | -2 | -0.7 | 0 | 114 | 155 | i | 1
COCc1ccc([C@@H]2C[C@H]3CN(Cc4cccnc4)C(=O)[C@]34CCCN24)o1 | -5 | nt | nt | nt | 92 | i | 0.97
COc1ccc(C(=O)N[C@H](C(=O)Nc2ccc(S(=O)(=O)N3CCOCC3)cc2)C(C)C)cc1 | nt | nt | nt | nt | 96 | i | 0.8
CN(c1ccc(F)cc1)S(=O)(=O)c1ccc2[nH]cc(C(=O)O)c(=O)c2c1 | -15 | -0.3 | nt | nt | 103 | i | 0.87
N#Cc1nc(COc2ccccc2F)oc1NCCCn1ccnc1 | -5 | -3.9 | -35 | 144 | 111 | i | 1
Cc1[nH]c(=O)[nH]c(=O)c1CSc1nnc([C@H](CC(C)C)NC(=O)OC(C)(C)C)o1 | 9 | -0.4 | nt | nt | 101 | i | 0.89
CCC(=O)N1CCc2cc(S(=O)(=O)N3CCc4ccccc4C3)ccc21 | -4 | -1.6 | 61 | 18 | 86 | i | 0.82
COC(=O)c1cnc(SCc2ccc(C)cc2)n1C | -10 | nt | -77 | 93 | 101 | i | 1
CCCC(=O)n1nc(-c2ccc(C)cc2)nc1NCc1ccco1 | -5 | nt | nt | nt | 104 | i | 0.85
Cc1cccc(C(=O)n2c(=S)nc3cc(C)ccn32)c1 | nt | nt | nt | nt | 100 | i | 0.91
COc1ccccc1N1CCN(CC(O)COc2cccc3ccccc23)CC1 (configuration not stated) | -9 | -0.2 | 10 | 88 | 107&93 | i | 1&0.63
C=CCNCCOc1ccc(C)cc1[N+](=O)[O-] | -11 | nt | nt | nt | 98 | i | 0.92
CCn1cc([N+](=O)[O-])c(C(=O)N2N=C(c3ccc(Cl)c(Cl)c3)CC2c2ccccc2O)n1 (configuration not stated) | -4 | nt | -22 | 135 | 109 | i | 0.87
CCc1nc(SCC(=O)c2cc(C)ccc2C)n[nH]1 | 1 | -1.6 | nt | nt | 95 | i | 0.89
O=C(NCc1cccs1)C1CCN(S(=O)(=O)c2ccc(Cl)cc2)CC1 | -3 | nt | nt | nt | 104 | i | 0.97
FC(F)(F)c1cccc(N/N=C/c2ccccc2)c1 | -7 | -0.9 | nt | nt | 108 | i | 0.95
O=C1CC(c2ccccc2Cl)CC(O)=C1C=Nc1ccccc1 (configuration not stated) | -17 | 1.4 | 0 | 88 | 108 | i | 0.99
